Compound activity (PubChem BioAssay)
Rango complex inh: Rango-importin beta binding inhibition. Potency, µM (series often up to 92.2 µM), for the others: at the top dose inhibition of complex formation. Rango CFP/YFP FRET sensor + importin beta, 45 min. 340,000 tested, 0.031% active; active = rising FRET ratio curve, often small or poorly fitted; inconclusive = mostly compound fluorescence or quenching in the first reads; inactive = flat curves in all reads;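 also: potency is read from the fitted curve at half-maximal effect; 0% = DMSO wells and 100% = buffer wells lacking importin beta; nearly all actives have a fitted effect of over 15% in size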
Target sequence (Q14974 whole entry, looked up): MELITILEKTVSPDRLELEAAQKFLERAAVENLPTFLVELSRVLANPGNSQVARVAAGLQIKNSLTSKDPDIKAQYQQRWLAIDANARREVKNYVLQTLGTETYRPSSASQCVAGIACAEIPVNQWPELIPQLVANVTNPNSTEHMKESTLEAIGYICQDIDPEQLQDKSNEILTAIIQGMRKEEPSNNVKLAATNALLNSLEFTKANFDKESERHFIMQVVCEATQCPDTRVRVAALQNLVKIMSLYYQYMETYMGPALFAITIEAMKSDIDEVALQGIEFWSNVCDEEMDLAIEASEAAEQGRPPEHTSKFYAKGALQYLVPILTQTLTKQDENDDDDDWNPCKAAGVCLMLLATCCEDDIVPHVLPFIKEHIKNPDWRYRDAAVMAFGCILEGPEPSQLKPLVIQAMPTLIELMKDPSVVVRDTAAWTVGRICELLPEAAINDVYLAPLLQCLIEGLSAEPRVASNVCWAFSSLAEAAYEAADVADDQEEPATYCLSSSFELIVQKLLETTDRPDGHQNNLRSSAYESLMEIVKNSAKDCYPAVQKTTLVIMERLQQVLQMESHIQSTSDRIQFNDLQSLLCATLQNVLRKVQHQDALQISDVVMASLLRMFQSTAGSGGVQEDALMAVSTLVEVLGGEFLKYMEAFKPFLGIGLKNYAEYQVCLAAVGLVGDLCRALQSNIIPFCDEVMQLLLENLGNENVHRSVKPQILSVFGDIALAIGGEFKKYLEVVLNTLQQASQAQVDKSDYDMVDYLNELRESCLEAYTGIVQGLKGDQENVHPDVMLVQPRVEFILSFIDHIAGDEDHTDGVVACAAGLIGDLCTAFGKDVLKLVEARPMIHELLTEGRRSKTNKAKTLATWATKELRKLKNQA
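FRET biosensor (snurportin 1 IBB flanked by EYFP and cerulean), 50 nM, with compound 5 min, then 0.125 microM importin beta in PBS, 1 mM DTT, 0.02% Tween-20, 0.1% BSA. CFP/YFP ratio read after 45 min at room temperature; pre-read flags interference.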
Rango dissoc inh: inhibitors of RanGTP-induced Rango-importin beta complex dissociation; O95149+P62826; Biochemical FRET Rango-importin beta, RanGTP-induced dissociation; Potency, µM (top dose mostly 46.1 µM), without a hit: at the top dose activity change, negative = inhibition; 340,000 tested, 0.071% active; active means falling FRET ratio curve, often poorly fitted, with flat reads before Ran was added; inconclusive means other falling curves, or compound fluorescence or quenching; inactive means flat or rising ratio curve;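 also: potency is read from the fitted curve at half-maximal effect; % of control where 0% means no effect; nearly all actives have a fitted effect of over 45% in size; -100% = wells without RanGTP and RCC1; the record marks most hits as doubtful in a second field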
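Rango/importin beta premix (0.1/0.25 uM final), PBS + 1 mM DTT + 0.02% Tween-20 + 0.1% BSA; cpd 5 min RT; FRET pre-read; + RanGTP-RCC1 (0.6 uM Ran, 2 mM GTP, 0.2 uM RCC1); 45 min RT; FRET post-read, ex 430, em 486/530 nm.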
GLA inh pH 4.5: inhibitors of human alpha-galactosidase A at pH 4.5; 230,000 tested, under 10 active; activity change, negative = inhibition, % at 105 µM; purified enzyme, 4-MU-alpha-Gal fluorescence, pH 4.5; inconclusive = small, poorly fitted or top-dose-only inhibition, or a rising curve; inactive = flat fitted curve, though single readings scatter; no compound was filed as active;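 also: 0% = full activity with enzyme and -100% = basal without enzyme; dose as in the result columns while the protocol names 77 µM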
miR-21 FLuc: raises the signal of a miR-21 reporter; HeLa miR-21 FLuc reporter, luciferase, 48 h; Potency, µM (series often up to 38.3 µM), for inactives: at the highest dose reporter change, positive = more light; 340,000 tested, under 10 active; active = well fitted rising curve with a large enough effect; inconclusive = small, poorly fitted or top-dose-only effect; inactive = no such curve, though single readings can be large or run the other way;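 also: % of control where 0% means no effect; miR-21 action dims this reporter so a rising signal means less miR-21 action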
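Luminescence from a firefly luciferase reporter carrying a miR-21 binding site downstream, stably expressed under a CMV promoter in HeLa cells that make miR-21 endogenously, reports miRNA modulation after 48 h compound exposure up to approximately 40uM final.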
* marks the source's active call; other numbers are inactive results; ? = inconclusive; / = not tested or not shown; & = joins results of further samples.

No.	Rango complex inh	Rango dissoc inh	GLA inh pH 4.5	miR-21 FLuc	compound
1	-0.9%	-16%	-4	-6%	Cc1cc(C)nc(NC(=S)Nc2cccc(Cl)c2Cl)c1
2	3.6%	0%	2	1%	COc1ccc([N+](=O)[O-])cc1NC(=O)COC(=O)/C=C/c1ccco1
3	?	5%	/	/	Cn1c(=O)c2c(ncn2CC(=O)OCC(=O)c2ccc(Cl)cc2)n(C)c1=O
4	-0.6%	-10%	0	-7%	Cc1ccccc1Cn1c2ccccc2c2cnn(CC(=O)NCc3ccco3)c(=O)c21
5	2.6%	9%	/	/	O=C(COC(=O)CNC(=O)C1CCCCC1)NCc1ccc(Cl)cc1
6	?	?	/	-5%	CC(C)N1CCc2c(sc(NC(=O)c3ccc4ccccc4c3)c2C(N)=O)C1
7	-0.8%	4%	/	/	O=C(COC(=O)C1(c2ccccc2)CC1)NNC(=O)c1ccccc1F
8	-0.4%	11%	/	14%&-2%	O=C(NCc1ccc(Cl)cc1)c1cc(S(=O)(=O)N2CCCCC2)c[nH]1
9	-3.5%	-5%	/	/	O=C(c1cc(C2CC2)nn1-c1ccccc1)N1CCN(Cc2c(F)cccc2Cl)CC1
10	-4.4%	-7%	-5	-4%	COc1ccc(C2c3sc(=O)[nH]c3SC3C(=O)N(c4ccccc4)C(=O)C32)cc1 (centres undefined)
11	1.8%	9%	5	-12%	COC(=O)c1cc(NS(=O)(=O)c2ccc3c(c2)CCC(=O)N3)cc(C(=O)OC)c1
12	-2.9%	-14%	-9	-4%	COc1ccc(N2C(=O)C(CN3CCCCC3)C2c2ccccc2)cc1 (centres undefined)
13	4.7%	-17%	5	-13%	COC(=O)c1c(NC(=O)CN2CCC3(O)CCCCC3C2c2ccc(OC)cc2OC)sc(C)c1C (centres undefined)
14	-1.4%	16%	-2	-13%	O=c1c([N+](=O)[O-])c(NCCN2CCCCCC2)c2ccccc2n1-c1ccccc1
15	0.7%	-1%	1	-17%	Cc1cc(C)cc(C(=O)Nc2ccc3[nH]c(=O)[nH]c3c2)c1
16	?	?	/	4%	CCOC(=O)c1c(NC(=O)CC)sc2c1CCN(Cc1ccccc1)C2
17	2.2%	9%	/	/	C=CCC[C@H](Cc1ccc(F)cc1)C(=O)OC[C@@H](C)NC(=O)[C@@H](CC=C)CC(=O)N[C@H](CO)Cc1ccccc1
18	0.8%	13%	/	/	C[C@H](CO)N1C[C@H](C)[C@H](CN(C)S(C)(=O)=O)Oc2c(cccc2N(C)C)C1=O
19	?	?	-5	0%	CCOC(=O)c1sc2nc(C3CC3)cc(-c3ccc(F)cc3)c2c1N
20	0.7%	-1%	3	1%	C=C1CCN(C(C(=O)OC)C(C)C)S(=O)(=O)c2ccccc21 (centres undefined)
21	-1.5%	8%	/	/	O=C(NCCS(=O)(=O)N1CCN(c2ccccc2)CC1)c1ccc(Br)o1
22	4.9%	20%	1	-7%	CC1(C)Cc2c(c(N3CCOCC3)nc3sc4c(NN)ncnc4c23)CS1
23	-1.1%	-16%	0	-6%	COc1ccc(Cl)cc1-c1nc(N)nc(N(C)C)n1
24	0.2%	4%	6	-18%	COC(=O)c1ccc(CSc2nc3ccc(C)cc3[nH]2)o1
25	-3.8%	18%	/	/	CC(NS(=O)(=O)c1cccc(C(=O)NCc2ccncc2)c1)c1ccccc1 (centres undefined)

(more compounds)
No.	Rango complex inh	Rango dissoc inh	GLA inh pH 4.5	miR-21 FLuc	compound
26	0.1%	-4%	2	-15%	CN1CCN(c2ccc(Cl)cc2NS(=O)(=O)c2ccccc2Cl)CC1
27	6.1%	13%	-20	-4%	COc1ccc(C(=O)NNC(=O)c2ccc(S(=O)(=O)N3CCCCC3)cc2)cc1
28	0.4%	9%	-4	-4%	C/C(CC(=O)Nc1ccc(Cl)c(Cl)c1)=N\NC(=O)Cc1ccccc1
29	-3.1%	-1%	/	/	CN(C(=O)c1cccc(NC(=O)Cc2ccc(NC(=O)C3CCN(C(=O)C4CCCC4)CC3)cc2)c1)C1CCCCC1
30	/	/	14	-20%	CC(=O)c1ccc(NC(=S)N2C(C)CCCC2C)cc1 (centres undefined)
31	/	/	2	-1%	Cc1cc(NC(=O)CSc2ccc(-c3ccc4c(c3)OCO4)nn2)no1
32	0.6%	8%	/	-2%&6%	Cn1c2ccccc2c2cnn(CC(=O)NCCCN3CCN(c4ccccc4F)CC3)c(=O)c21
33	-0.2%	4%	4	0%	CC(=O)Nc1ccc(OC(=O)c2ccc(Cl)cc2)cc1
34	1.5%	8%	1	-8%	COCCOC(=O)c1c(C)n(C)c2ccc(OC(=O)c3cccs3)cc12
35	0.5%	1%	/	-40%	COC(=O)c1ccc(N2CCN(c3ccccc3)CC2)nc1
36	-0.4%	13%	-4	-11%	CC(C)(C)c1ccc(OC(=O)c2ccccc2)cc1
37	-1.1%	-1%	/	0%	CCNC(=O)CC1C(=O)N(c2ccccc2)C(=O)N1CCOC (centres undefined)
38	8.5%	-24%	3	0%	COc1ccc(NC(=O)CSc2c(C)n[nH]c2C)cc1
39	?	?	/	/	NNC(=O)C1C(O)CCC2CN3CCc4c([nH]c5ccccc45)C3CC21 (centres undefined)
40	-1.2%	1%	7	-3%	COc1ccc(S(=O)(=O)N(C)c2ccc(C(=O)N3CCC(C(N)=O)CC3)cc2)cc1
41	1.4%	4%	1	-18%	O=C(CSc1nnc2c(n1)[nH]c1ccccc12)Nc1ccc2c(c1)OCO2
42	0.2%	-7%	5	0%	c1ccc(Oc2ccc(-c3ccnc4nc(N5CCN(c6ccccc6)CC5)nn34)cc2)cc1
43	-2.4%	-4%	/	1%	O=C(CNC(=O)c1ccc(Cl)cc1)OCC(=O)c1ccccc1
44	-3.2%	1%	/	/	COc1cccc(CC(=O)OCC(=O)NC2(C#N)CCCC2)c1
45	0.5%	-13%	1	-2%	CC1(C)OCC(COC(=O)Nc2cccnc2)([N+](=O)[O-])CO1
46	-4.9%	12%	/	3%	CC(C)C(=O)Nc1ccc(Oc2ccc3c(c2)C(=O)NC3=O)cc1
47	-2.6%	-17%	-6	-2%	CCCc1cc(C(=O)N2CCN(C(c3ccccc3)c3ccccc3)CC2)no1
48	-1.9%	-2%	/	2%	CC(CC(=O)N1CCN(S(=O)(=O)c2ccc(Cl)cc2)CC1)n1cncn1 (centres undefined)
49	1.7%	0%	/	13%&19%	CC(=O)c1ccc(NS(=O)(=O)c2cc(-c3cnc(C4CC4)o3)ccc2C)cc1
50	-1.0%	0%	6	-42%	Nc1ccc(Cl)c(-c2nc3ncccc3o2)c1

Part of the list above, with values under each structure:
Second line of a record: Rango complex inh	Rango dissoc inh	GLA inh pH 4.5	miR-21 FLuc
24	COC(=O)c1ccc(CSc2nc3ccc(C)cc3[nH]2)o1
    0.2%	4%	6	-18%
25	CC(NS(=O)(=O)c1cccc(C(=O)NCc2ccncc2)c1)c1ccccc1 (centres undefined)
    -3.8%	18%	/	/
26	CN1CCN(c2ccc(Cl)cc2NS(=O)(=O)c2ccccc2Cl)CC1
    0.1%	-4%	2	-15%
27	COc1ccc(C(=O)NNC(=O)c2ccc(S(=O)(=O)N3CCCCC3)cc2)cc1
    6.1%	13%	-20	-4%
28	C/C(CC(=O)Nc1ccc(Cl)c(Cl)c1)=N\NC(=O)Cc1ccccc1
    0.4%	9%	-4	-4%
29	CN(C(=O)c1cccc(NC(=O)Cc2ccc(NC(=O)C3CCN(C(=O)C4CCCC4)CC3)cc2)c1)C1CCCCC1
    -3.1%	-1%	/	/
30	CC(=O)c1ccc(NC(=S)N2C(C)CCCC2C)cc1 (centres undefined)
    /	/	14	-20%
31	Cc1cc(NC(=O)CSc2ccc(-c3ccc4c(c3)OCO4)nn2)no1
    /	/	2	-1%
32	Cn1c2ccccc2c2cnn(CC(=O)NCCCN3CCN(c4ccccc4F)CC3)c(=O)c21
    0.6%	8%	/	-2%&6%
33	CC(=O)Nc1ccc(OC(=O)c2ccc(Cl)cc2)cc1
    -0.2%	4%	4	0%
34	COCCOC(=O)c1c(C)n(C)c2ccc(OC(=O)c3cccs3)cc12
    1.5%	8%	1	-8%
35	COC(=O)c1ccc(N2CCN(c3ccccc3)CC2)nc1
    0.5%	1%	/	-40%
36	CC(C)(C)c1ccc(OC(=O)c2ccccc2)cc1
    -0.4%	13%	-4	-11%
37	CCNC(=O)CC1C(=O)N(c2ccccc2)C(=O)N1CCOC (centres undefined)
    -1.1%	-1%	/	0%
38	COc1ccc(NC(=O)CSc2c(C)n[nH]c2C)cc1
    8.5%	-24%	3	0%
39	NNC(=O)C1C(O)CCC2CN3CCc4c([nH]c5ccccc45)C3CC21 (centres undefined)
    ?	?	/	/

(more compounds)
No.	Rango complex inh	Rango dissoc inh	GLA inh pH 4.5	miR-21 FLuc	compound
51	1.4%	3%	/	-1%	Cc1ccc(S(=O)(=O)n2cnc(C)c2)cc1
52	5.5%	41%	3	-3%	N#CCCN(Cc1cccnc1)C(=O)c1ccc(S(=O)(=O)N2CCOCC2)cc1
53	-1.0%	4%	6	-9%	Cc1nn(-c2ccccc2)c(Cl)c1/C=N\NC(=O)c1cncc(Br)c1
54	-0.9%	3%	-8	7%	O=C(CCN1C(=O)COc2ccccc21)NCCN1CCN(c2cccc(Cl)c2)CC1
55	-3.3%	10%	/	-2%	Nc1cc(N)cc(C(=O)Nc2ccc3c(c2)C(=O)NC3=O)c1
56	1.4%	-7%	/	-6%	O=C(NCc1cccc(Cl)c1)c1ccc2ccccc2n1
57	0.0%	-1%	/	-40%	COc1cccc(C(=O)Nc2ccc3[nH]ncc3c2)c1OC
58	-3.4%	6%	/	-31%	O=C(NCCc1ccc(Cl)cc1)c1ccc(OCC2CCCO2)cc1 (centres undefined)
59	?	?	-8	-19%	O=c1c2cc(N3CCOCC3)ccc2[nH]c(=S)n1Cc1ccco1
60	-3.6%	-5%	-8	5%	Cc1ccc(NC(=O)CSc2n[nH]c(-c3ccco3)n2)c(C)c1
61	5.0%	-2%	-6	1%	Cc1ccccc1NC(=O)COC(=O)C1(C)CC1(Cl)Cl (centres undefined)
62	0.9%	7%	2	-3%	CCOc1ccc(NC(=O)Nc2ccc(NC(C)=O)cc2)cc1
63	0.6%	0%	6	-41%	CNc1ncc(C(=O)c2ccc(Br)cc2)s1
64	0.9%	-1%	/	-7%	COc1cccc(C(=O)Nc2nnc(CCS(=O)(=O)c3ccc(C)cc3)s2)c1
65	2.0%	5%	3	-4%	Cc1cc(NC(=O)NC(C(F)(F)F)C(F)(F)F)no1
66	6.3%	-5%	/	0%	O=C(c1cccc(NS(=O)(=O)c2cccc(F)c2)c1)N1CCCC1
67	-0.1%	-1%	0	-13%	Cc1ccc(NC(=S)Nc2cc(C(=O)O)ccc2N2CC3CC(C2)c2cccc(=O)n2C3)cc1C (centres undefined)
68	-2.3%	12%	2	-5%	COC(=O)Cc1ccc(NC(=S)NCc2ccc(F)cc2)cc1
69	-0.2%	-3%	-6	-6%	Cc1cc(-c2csc(NC(=O)c3ccc(=O)n(C)n3)n2)c(C)n1CC1CCCO1 (centres undefined)
70	-2.5%	-5%	0	0%	O=C(N/N=C/c1ccncc1)c1ccc(NC(=O)c2ccc(Cl)cc2)cc1
71	2.6%	-11%	2	-20%	O=c1[nH]c(Cc2cccs2)nc2scc(-c3ccc(Cl)cc3)c12
72	0.0%	?	0	-13%	C=C(C)CNC(=O)c1ccc(OC2CCN(S(=O)(=O)N(C)C)CC2)cc1
73	?	-9%	-5	-6%	O=C(Nc1cccs1)Nc1c(F)cc(F)cc1Br
74	-0.6%	-16%	-2	-4%	COC(=O)c1[nH]c2ccc(C)cc2c1NC(=O)C1=COCCO1

This is a subset; the hit share may differ from the screen's.
